Menin MLL FP FL = inhibitors of human menin-MLL interaction, wild-type MLL peptide | Fluorescence polarization, fluorescein-MLL peptide displacement from menin | FP activity change, % at 61.4 µM | 290,000 tested, under 10 active | AID 1766; inconclusive = falling polarisation curve, or a change in total fluorescence; inactive = total fluorescence flat and polarisation flat or rising; no compound was filed as active; the % refers to the polarisation; negative = inhibition;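 further: % of control where 0% means no effect; inhibitors lower the polarisation; unlabelled MLL peptide was the positive control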
PINK1 expr mod = modulators of PINK1 expression. PINK1 immunofluorescence, high-content cytometry, 24 h. Potency, µM (titrated, usually from 76.6 µM), without a hit: at the top dose activation (PINK1 increase), actives largely listed as activators. 0.2% of 410,000 active. AID 624263; active = well fitted activation curve with a large enough effect; inconclusive = small, poorly fitted or top-dose-only effect; inactive = flat fitted curve, though single readings scatter; cell line not stated here;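 further: potency means the concentration at half of the fitted maximal effect; % of control where 0% means no effect; nearly all actives have a fitted effect of over 65% in size; a mitochondrial uncoupler was the plate control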
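PINK1 protein level read as immunofluorescence by microplate cytometer in a fixed, stained stable cell line after 24 h exposure to five compound concentrations, with CCCP as control.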
gsp antag = antagonists of gsp mutant (McCune-Albright syndrome) | Potency, µM (series often up to 76.9 µM), inactives show at the top dose activity change, negative = inhibition, usual class: inhibitors | 0.4% of 340,000 active | AID 624288 | gsp-mutant cells, cAMP HTRF, 30 min; control for the full effect not named in the record; active = falling curve of any shape with a large fitted effect; inconclusive = falling curve, mostly with a smaller effect; inactive = flat or rising curve; cell line not stated here;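 further: intracellular cAMP measured with PDE inhibitor Ro 20-1724 present during compound exposure; potency means the concentration at half of the fitted maximal effect; on the % scale 0 is the no-effect control and ±100 the full control effect; nearly all actives have a fitted effect of over 65% in size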
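G418-selected cells were plated in DMEM/10% FBS for 16-24 h at 37C, then treated with compounds plus the PDE inhibitor […] (300 uM solution added) for 30 min at 37C. Intracellular cAMP was measured by HTRF after 30 min lysis at room temperature.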
gsp agonist = gsp mutant agonism | gsp mutant cells, cAMP HTRF, 30 min; control for the full effect not named in the record | Potency, µM (doses to about 76.9 µM), without a hit: top-dose activation (cAMP increase), actives largely listed as activators | 0.13% of 340,000 active; active = well fitted activation curve with a large enough effect; inconclusive = small, poorly fitted or top-dose-only effect, or another doubt; inactive = no such curve, though single readings can be large or run the other way; cell line not stated here;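 further: phosphodiesterase inhibitor Ro 20-1724 added with compounds to block cAMP breakdown; potency means the concentration at half of the fitted maximal effect; nearly all actives have a fitted effect of over 60% in size; about a fifth of the inactives were tested at one dose only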
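Cells stably selected in G418 were plated at 2000/well, grown 16-24 hr, then given compounds in DMSO with the PDE inhibitor […] (300 uM solution added) for 30 min at 37C; cAMP was read by HTRF.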
ClpP mod = qHTS Assay for Activators of ClpP; purified B. subtilis ClpP, FRET peptide cleavage, 20 min; Potency, µM (titrated, usually from 57.5 µM), without a hit: top-dose activity change, negative = active; 1.9% of 340,000 active; AID 651965, 2013; active = well fitted falling curve with a large enough effect; inconclusive = small, poorly fitted or top-dose-only effect; inactive = no such curve, though single readings can be large or run the other way; further: potency means the concentration at half of the fitted maximal effect; the source files actives as falling curves though it sought activators and does not explain the sign; nearly all actives have a fitted effect of over 65% in size; many hits overshoot -100%
Target sequence (P80244 whole entry, looked up): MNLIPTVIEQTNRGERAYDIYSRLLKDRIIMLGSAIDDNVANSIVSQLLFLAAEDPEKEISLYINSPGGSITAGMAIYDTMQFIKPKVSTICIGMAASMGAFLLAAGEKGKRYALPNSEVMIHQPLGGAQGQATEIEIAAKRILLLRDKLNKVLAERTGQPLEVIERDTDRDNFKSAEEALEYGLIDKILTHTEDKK
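Buffer: 100 mM Tris/HCl pH8, 100 mM KCl, 0.05% low protease BSA, 2.5% glycerol, 0.01% Tween-20. ClpP 10 microg/mL final; 20 min RT; delta FRET normalized to ADEP and DMSO controls.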
D2 agonist = agonists of human D2 dopamine receptor (beta-arrestin); DiscoveRx PathHunter D2 beta-arrestin, luminescence, 90 min; 100% = 57 uM dopamine signal; activation, % (concentration not given with the values); 0.084% of 360,000 active; AID 624465; in the data active = activation above about 40%; inconclusive = about 15% to 40%; inactive = below about 15%; further: compound concentration not given in the record; the text of the record calls up to 30% inactive
Target sequence (P14416 whole entry, looked up): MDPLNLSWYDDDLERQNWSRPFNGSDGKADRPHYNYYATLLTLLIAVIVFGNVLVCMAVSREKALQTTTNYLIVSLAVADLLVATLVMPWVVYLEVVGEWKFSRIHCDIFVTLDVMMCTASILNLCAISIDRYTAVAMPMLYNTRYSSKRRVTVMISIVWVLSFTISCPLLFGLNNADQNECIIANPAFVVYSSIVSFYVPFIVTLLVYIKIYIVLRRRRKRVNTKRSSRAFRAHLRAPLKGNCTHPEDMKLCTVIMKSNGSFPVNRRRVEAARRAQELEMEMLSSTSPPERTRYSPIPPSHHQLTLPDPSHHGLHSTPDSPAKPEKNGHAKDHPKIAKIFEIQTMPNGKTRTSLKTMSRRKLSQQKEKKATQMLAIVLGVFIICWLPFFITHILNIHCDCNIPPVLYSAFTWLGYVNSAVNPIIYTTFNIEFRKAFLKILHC
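DiscoveRx PathHunter D2 beta-arrestin cells (2,100/well) attached overnight, then compound-stimulated 90 min at 37 C in HBSS/10 mM HEPES/0.1% Tween-20 buffer; beta-galactosidase complementation read by luminescence after 1 h at ambient temperature. Dopamine 57 uM final (EC100) as control.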
Sfp PPTase inh = Sfp phosphopantetheinyl transferase inhibition | Q9F4F7 | 3.5% of 310,000 active | Potency, µM, inactives show max response, negative = inhibition, usual class: inhibitors | Biochemical Sfp PPTase activity, qHTS; active means well fitted inhibition curve with a large enough effect; inconclusive means small, poorly fitted or top-dose-only effect, or another doubt; inactive means no such curve, though single readings can be large or run the other way;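 further: the enzyme is Sfp with the accession as filed and its product quenches rhodamine fluorescence; potency means the concentration at half of the fitted maximal effect; 0% = enzyme reaction without inhibitor and -100% = no enzyme wells; top concentration of the series not given in the record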
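Step 1, compound plus 15 nM Sfp-PPTase, 15 min, room temperature. Step 2, add rhodamine-CoA (5 uM) and BHQ-2-YbbR (12.5 uM). Step 3, read 525/598 nm fluorescence at 0 and 30 min.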
An asterisk follows results filed as active; & = joins results of further samples; [ ] = dose if it differs, or a comment.

For O=C(Nc1ccccc1C(=O)O)c1ccc(Br)c(S(=O)(=O)NCc2ccccc2)c1 the results were Menin MLL FP FL 2.0, PINK1 expr mod inconclusive, gsp antag inconclusive, gsp agonist 3.3%[15.4 µM], D2 agonist 4.7 and Sfp PPTase inh 2.3%.
Screening O=C(O)Cc1ccc(NC(=O)c2ccc3c(c2)C(=O)N(Cc2ccccc2)C3=O)cc1 returned PINK1 expr mod 1.0%, gsp agonist inconclusive, ClpP mod 0.7% and D2 agonist -3.1.
C=CCn1c(SCc2csc(-c3ccc(C)cc3)n2)nnc1-c1ccccc1OC was read as Menin MLL FP FL 4.9, PINK1 expr mod inconclusive, gsp antag -19.4%, gsp agonist -23.6%, ClpP mod -5.3%, D2 agonist -1.1 and Sfp PPTase inh inconclusive.
`COc1ccc(S(=O)(=O)N2CCOC23CCN(S(=O)(=O)c2ccc(F)cc2C)CC3)cc1` gave PINK1 expr mod -2.1%, gsp antag -8.3%, gsp agonist -5.9%[15.4 µM], ClpP mod 5.0% and D2 agonist -6.3.
O=S1(=O)CC=C(CSc2nc3ccccc3[nH]2)C1 was read as Menin MLL FP FL 0.1, PINK1 expr mod -0.4%, gsp antag 3.7%, gsp agonist -43.3%, ClpP mod -20.0%, D2 agonist -2.7 and Sfp PPTase inh 17.7%.
COc1ccc2[nH]c3c(c2c1)CCN1C(=O)C(CC(=O)NC(C)(C)C)C[C@H](C(=O)N(C(C)C)C(C)C)[C@@]31C (some centres undefined) was read as PINK1 expr mod -0.6%, gsp antag -7.1%, ClpP mod -3.9% and D2 agonist -2.4.
COc1ccc2oc(C(=O)N3CCN(C(=O)c4ccco4)CC3)c(C)c2c1 was read as PINK1 expr mod 5.9%, gsp antag 7.9%, gsp agonist -2.9%, ClpP mod -13.0% and D2 agonist -2.1.
Screening O=C(NCc1ccc2c(c1)OCO2)C1CCN(c2ccc(S(=O)(=O)N3CCCC3)cc2)CC1 returned Menin MLL FP FL 3.3, PINK1 expr mod 1.9%, gsp antag -8.9%, gsp agonist 17.2%, ClpP mod -15.2%, D2 agonist -1.2 and Sfp PPTase inh 10.8%.
Screening COc1ccc(NC(=O)CSc2nnc3c4c(nc(-c5ccccc5)n23)CC(C)(C)OC4)cc1 returned Menin MLL FP FL 3.4, PINK1 expr mod inconclusive, gsp antag 8.5%, gsp agonist -149.7%, ClpP mod -12.6%, D2 agonist 4.1 and Sfp PPTase inh -8.6%.
`CC1=C(C(=O)N2CCOCC2)C(c2ccsc2)C2=C(CCCC2=O)N1` (centres undefined) gave Menin MLL FP FL -0.3, PINK1 expr mod inconclusive, gsp antag 4.0%, gsp agonist 5.1%, ClpP mod inconclusive, D2 agonist 0.0 and Sfp PPTase inh -11.8%.
CN(C(=O)c1ccc(S(=O)(=O)NC2CCCC2)cc1)C1CCCCC1 was read as Menin MLL FP FL 2.8, PINK1 expr mod -0.3%[38.3 µM], gsp antag 5.6%, gsp agonist -5.9%, ClpP mod -0.3%, D2 agonist 5.6 and Sfp PPTase inh -6.0%.
Screening CCC(C)(C)NC(=O)c1sccc1Oc1ccc(F)cc1[N+](=O)[O-] returned Menin MLL FP FL -1.7, PINK1 expr mod 0.9%, gsp antag -24.0%, gsp agonist -12.6%[15.4 µM], D2 agonist 2.1 and Sfp PPTase inh 10.5%.
For COc1ccc(N/N=C(\C=N\O)C(=O)c2ccc(OC)cc2)cc1 the results were Menin MLL FP FL 2.9, PINK1 expr mod -0.3%, gsp antag 29.8%, gsp agonist inconclusive, ClpP mod -1.3%, D2 agonist -3.5 and Sfp PPTase inh 0.4%.
For COc1cc(/C(C)=N/NC(=O)CSc2nncn2C)ccc1OCc1ccccc1Cl the results were Menin MLL FP FL 5.1, PINK1 expr mod 1.1%, gsp antag 8.0%, gsp agonist -40.7%[inhibitor], ClpP mod -5.9%, D2 agonist -0.5 and Sfp PPTase inh -6.7%.
For N#CC1(c2ccccc2)CCN(S(=O)(=O)c2ccc(OC(F)(F)F)cc2)CC1 the results were Menin MLL FP FL -10.3, PINK1 expr mod 1.6%, gsp antag 10.0%, gsp agonist 1.8%[15.4 µM], ClpP mod 1.1%, D2 agonist -2.7 and Sfp PPTase inh 4.3%.
For N=c1c2ccccc2nc2n1CCCCCCC2 the results were PINK1 expr mod -0.2%, gsp agonist -26.1%, ClpP mod -1.1% and D2 agonist -4.2.
Screening Cc1c(C(=O)O)oc2c1/C(=N\O)CC(C)(C)C2 returned Menin MLL FP FL 7.6, PINK1 expr mod -0.6%, gsp antag 11.5%, gsp agonist 1.2%[15.4 µM], ClpP mod -0.7%, D2 agonist -4.4 and Sfp PPTase inh -8.1%.
Screening CCCc1ccc(OCCNC(C)=O)cc1 returned Menin MLL FP FL -1.1, PINK1 expr mod 6.9%[38.3 µM], gsp antag 5.8%, gsp agonist -38.0%[inhibitor], ClpP mod -0.6%, D2 agonist -3.5 and Sfp PPTase inh -4.3%.
For c1ccc(Cn2c(-c3ccccc3)c[n+]3c2SCCC3)cc1 the results were Menin MLL FP FL 1.2, PINK1 expr mod -1.1%, gsp antag 11.3%, gsp agonist -34.1%[inhibitor], D2 agonist -4.1 and Sfp PPTase inh 2.2%.
`CCOc1cccc(C=NNc2ccc(S(=O)(=O)Nc3ccccc3C(=O)O)cc2[N+](=O)[O-])c1O` gave PINK1 expr mod -1.9%, gsp antag -2.0%, gsp agonist inconclusive and D2 agonist -2.6.
`Cc1cc(OCCCCOc2ccc(C#N)cc2)ccc1[N+](=O)[O-]` gave Menin MLL FP FL 3.8, PINK1 expr mod 0.9%, gsp antag -11.0%, gsp agonist inconclusive, ClpP mod 1.7%, D2 agonist 0.5 and Sfp PPTase inh 6.5%.
Screening O=C(NCc1ccco1)/C(=C\c1cccs1)NC(=O)c1ccccc1 returned Menin MLL FP FL -3.6, PINK1 expr mod 0.5%, gsp antag 3.0%, gsp agonist -18.6%, ClpP mod 1.8%, D2 agonist -0.5 and Sfp PPTase inh 8.2%.
Cc1onc(-c2ccccc2)c1C(=O)NCc1cccnc1 was read as Menin MLL FP FL 0.9, PINK1 expr mod -2.0%, gsp antag 6.2%, gsp agonist -39.7%[inhibitor], ClpP mod -0.3%, D2 agonist 1.3 and Sfp PPTase inh 11.7%.
Cc1noc(C)c1-c1ccc(C(=O)N2CCN(C)CC2)c2occc12 was read as PINK1 expr mod 2.7%, ClpP mod -3.9% and D2 agonist -6.7.
CCOc1ccc(-n2c(=S)sc3c(=O)[nH]c(SCC(=O)NC4CCCCC4)nc32)cc1 was read as PINK1 expr mod 3.5%, gsp agonist inconclusive, ClpP mod -0.2% and D2 agonist -0.8.
`Cc1ccc(CNC(=O)NC2CCCCC2)cc1` gave Menin MLL FP FL -1.6, PINK1 expr mod -1.6%, gsp antag 11.4%, gsp agonist -24.1%, ClpP mod 1.2%, D2 agonist -0.7 and Sfp PPTase inh 10.7%.
Nc1ncnc2c1cnn2-c1ccccc1 was read as Menin MLL FP FL 2.5&0.9, gsp antag 10.0%, gsp agonist -11.2%, ClpP mod inconclusive, D2 agonist 1.9 and Sfp PPTase inh -11.7%&26.5%.
Screening COc1ccc(CNC(=O)c2ccc3ccccc3n2)cc1 returned Menin MLL FP FL -0.3, PINK1 expr mod 0.2%, gsp antag -3.9%, gsp agonist -17.2%, ClpP mod -0.9%, D2 agonist -1.3 and Sfp PPTase inh 0.8%.
CC(=O)c1ccc(OCCOc2ccc(C#N)cc2)cc1 was read as Menin MLL FP FL 4.2, PINK1 expr mod -0.1%, gsp antag 15.0%, gsp agonist inconclusive, ClpP mod -0.6%, D2 agonist 10.0 and Sfp PPTase inh 9.6%.
Cc1ccccc1CSc1nncn1N was read as Menin MLL FP FL 2.1, PINK1 expr mod 3.4%, gsp antag 10.7%, gsp agonist 6.2%, ClpP mod -1.0%, D2 agonist -1.8 and Sfp PPTase inh 10.3%.
COc1ccc(-c2oc3ccccc3c2C(=O)OCc2ccc(O)cc2)cc1 was read as Menin MLL FP FL -2.7, PINK1 expr mod -1.1%, gsp antag -11.4%, gsp agonist inconclusive, ClpP mod 4.5%, D2 agonist -2.1 and Sfp PPTase inh -0.7%.
`Cc1onc(-c2ccccc2)c1C(=O)Nc1ccc(NC(=O)c2c(-c3ccccc3)noc2C)cc1` gave PINK1 expr mod 4.3%, gsp antag 3.5%, gsp agonist -1.8%, ClpP mod 2.3% and D2 agonist -3.0.
`CCC(C)Sc1nnc(NS(=O)(=O)Cc2ccccc2)s1` (centres undefined) gave Menin MLL FP FL -0.4, PINK1 expr mod 0.3%, gsp antag -6.5%, gsp agonist 14.5%, ClpP mod -2.2%, D2 agonist 2.9 and Sfp PPTase inh 9.3%.
CCOC(=O)c1sc(=NC(=O)c2cccc(Br)c2)n(C)c1C was read as PINK1 expr mod 0.7%, gsp antag -3.3%, gsp agonist -11.1%, ClpP mod 7.6%, D2 agonist 2.8 and Sfp PPTase inh 10.7%.
O=C(NC1CCCC1)C(=O)c1c[nH]c2ccccc12 was read as PINK1 expr mod 2.6%, gsp antag -21.9%, gsp agonist -36.2%[inhibitor], ClpP mod -0.5%, D2 agonist 3.5 and Sfp PPTase inh 20.8%.
Screening COCCNc1oc(/C=C/c2ccccc2OC)nc1S(=O)(=O)c1ccccc1 returned Menin MLL FP FL 1.0, PINK1 expr mod 0.4%, gsp antag inconclusive, gsp agonist 13.8%, ClpP mod 3.7%, D2 agonist -0.7 and Sfp PPTase inh -11.3%.
`CCN1C(=O)/C(=C\C=C\c2ccccc2[N+](=O)[O-])SC1=S` gave Menin MLL FP FL 11.9, PINK1 expr mod 4.0%, gsp antag -13.0%, gsp agonist 7.2%, D2 agonist 0.7 and Sfp PPTase inh -12.7%.
`COc1ccc2nc(N)sc2c1` gave Menin MLL FP FL -1.1, PINK1 expr mod 10.3%[38.3 µM], gsp antag 6.0%, gsp agonist -17.5%, ClpP mod 0.0%, D2 agonist -3.5 and Sfp PPTase inh 16.9%.
`CCCCNC(=S)N(CCO)Cc1cc2cc3c(cc2[nH]c1=O)OCCO3` gave Menin MLL FP FL -3.5, PINK1 expr mod 1.5%, gsp antag -15.2%, gsp agonist -9.4%, ClpP mod 4.1%, D2 agonist -2.0 and Sfp PPTase inh 14.0%.
`COc1ccc(CNC(=O)c2sc(=O)n(Cc3cc(C(C)=O)ccc3OC)c2C)cc1` gave PINK1 expr mod -0.3%, ClpP mod 0.5% and D2 agonist 3.5.

Source: PubChem BioAssay
